Screening data deposited in PubChem BioAssay by several laboratories.
Env fusion inh = inhibitors of HIV Env-mediated cell fusion | HeLa-JRFL Env/CEM21 cell fusion, luciferase | inhibition, % at 12.3 µM | actives 1.1% (n = 360,000) | AID 651610;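 active means mean replicate inhibition score of at least 50 and every replicate individually at or above 50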;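 further: 0% = plate neutral controls and 100% = maraviroc near 300 nM; one replicate is shown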
PABP polyA inh = blocks human PABP binding to poly(A) RNA; P11940; fluorescence polarization; inhibition, % at 35 µM; actives 1% (n = 290,000); AID 2014;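 active means 50% or more with normal probe brightness, or confirmed in later tests; about a fifth of its hits are not listed in these tables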;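 further: calls also rest on retests at 20 µM and on dose response follow-up; controls were probe without protein and protein plus probe with vehicle; some compounds called inactive have numbers as strong as hits; many hits fall short of the cut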
Rce1 inhib = yeast Ras-converting enzyme inhibition; yeast membranes, quenched prenylated peptide cleavage fluorescence; AID 2563; Q03530; calls only; actives 0.27% (n = 290,000);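 active means fall in fluorescence gain of 50% or more versus controls, with final raw signal at or below 3038400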;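 further: plate controls were neutral control wells for no effect and wells lacking membranes for full effect; tested at 10 µM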
Target sequence (Q03530 whole entry, looked up): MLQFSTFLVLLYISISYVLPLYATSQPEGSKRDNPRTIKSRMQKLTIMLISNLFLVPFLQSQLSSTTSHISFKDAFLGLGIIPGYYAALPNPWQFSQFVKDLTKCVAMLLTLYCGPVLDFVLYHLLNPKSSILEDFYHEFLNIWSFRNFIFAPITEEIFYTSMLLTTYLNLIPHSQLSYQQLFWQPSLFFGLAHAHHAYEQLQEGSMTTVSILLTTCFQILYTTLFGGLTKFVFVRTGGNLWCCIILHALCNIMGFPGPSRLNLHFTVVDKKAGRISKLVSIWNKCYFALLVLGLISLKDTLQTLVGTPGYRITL
eIF4H inh = inhibitors of RNA binding by human eIF4H. Q15056. eIF4H fluorescence polarization binding assay. inhibition, % at 35 µM. actives 0.94% (n = 290,000);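 active means 50% or more with normal probe brightness, or confirmed in later tests; about a fifth of its hits are not listed in these tables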;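 further: calls also rest on retests at 20 µM and on dose response follow-up; 0% = protein and probe with vehicle and 100% = probe without protein; strong numbers were not always called active; many hits fall short of the cut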
MT1-MMP act inh = MT1-MMP (human) activation inhibition; P50281; actives 0.061% (n = 360,000); HT1080 RFP-PRO-GFP cells, GFP/RFP ratio fluorescence, overnight; percent of plate control window, DMSO zero; GFP/RFP ratio change, % at 20 µM; AID 651647;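 active means GFP/RFP ratio change of at least 30% with cell ATP level not reduced by more than half and red fluorescence within 50% of control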; further: strong numbers were not always called active
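Material – HT1080 RFP-PRO-GFP cells · Control set – DMSO wells and RFP-L50D-GFP cells · Incubation – overnight cell settling, then overnight compound exposure, 37 °C, 5% CO2 · Compound dosing – single-point 20 µM compound, 1% DMSO · Read-out – GFP/RFP fluorescence ratio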
CSC inhib = cancer stem cell inhibition | cancer stem cell-like cells viability, luminescence | inhibition, % at 7.5 µM | actives 1.1% (n = 300,000);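 active means mean at 75% or more and at least half the replicates too; tested in HMLE shEcad cells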;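 further: 0% = median of negative and 100% = median of positive control wells; the first replicate is given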
UUG fidelity = yeast start codon fidelity modulation; S. cerevisiae UUG-firefly luciferase reporter, luminescence/redox ratio; AID 602363; actives 0.13% (n = 350,000); activity score, % at 18.7 µM;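 active means replicate mean at a twofold rise or more, about +100% in these data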;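 further: firefly luciferase made from a UUG start codon reports start codon fidelity; reporter light over untreated wells divided by growth signal over untreated wells; some hits fall short of that in this replicate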
MT1-MMP act inh RFP = further read-out of MT1-MMP act inh, marked with its call; RFP signal change, %; measured here: RFP expression control read;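 0 = vehicle wells; hits needed this value within 50% of zero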
* hit, by the source's call; i = inactive; / = not tested or not shown; & = joins results of further samples; [ ] = remark or other dose. Some of the compounds tested; count on the stated rates, not on these rows.

Values in the order: Env fusion inh, PABP polyA inh, Rce1 inhib, eIF4H inh, MT1-MMP act inh, MT1-MMP act inh RFP, CSC inhib, UUG fidelity
O=S1(=O)CCO[C@H]2Cc3ccccc3[C@H]2N1Cc1cccc(C(F)(F)F)c1
    66*, -2, i, -7, 5, -5, 26, -11
O=C(c1ccccc1)[C@H]1CC=CC[C@H]1C(=O)O
    /, 10, i, 6, -2, -1, -19, -7
N/C(=N\OC(=O)Cc1ccccc1)c1ccccn1
    /, -3, i, -13, 11, 4, 9, -8
CCc1cccc(C)c1NC(=O)CN(C)S(=O)(=O)c1ccc(-c2ccc(=O)[nH]n2)s1
    9, 1, i, -11, 0, -4, -6, 9
Fc1ccc(NC(=S)Nc2cccnc2)cc1
    13, 2, i, 12, -2, -3, -5, -13
CC1=NN(c2ccc(Br)cc2)C(=O)/C1=C/c1ccc(-c2ccccc2C(=O)O)o1
    0, 38, i, 8, -3, 0, 18, -1
CC1(C)Cc2nc3[nH]c(=S)n(-c4ccccc4)c(=O)c3cc2CO1
    -29, /, i, /, 3, 3, -6, -7
CCN(CC)S(=O)(=O)c1ccc(N2CCCC2)c(NS(=O)(=O)c2ccccc2)c1
    -40, 17, i, 2, 1, 0, 2, 4
COc1cccc(-c2nnc(SCC(=O)Nc3cc(C)on3)n2C)c1
    /, 7, i, 1, 0, 3, -13, -7
CCOc1ccc(/C=C2\SC(=S)N(CC(=O)NCCCN3CCOCC3)C2=O)cc1
    -3, 2, i, 7, 7, 9, -2, -9
COCC(C)n1c(SCc2nc3ccccc3c(=O)[nH]2)nc2ccccc2c1=O (stereo not given)
    8, 38, i, -6, -1, 3, -66, /
COc1ccc(NC(=O)COC(=O)CNS(=O)(=O)c2ccccc2)cc1OC
    3, -7, i, -5, 0, 3, 6, /
O=C(Nc1cccc(C(F)(F)F)c1)NC1CCN(S(=O)(=O)c2ccc(F)cc2)CC1
    /, -2, i, 5, 4, -3, -20, -16
O=C1C2C3C=CC(C4CC34)C2C(=O)N1/N=C/c1ccc(-c2ccccc2[N+](=O)[O-])o1 (stereo not given)
    /, 33, i, 23, 1, 3, 50, -7
COc1ccc(Cc2nnc(-c3ccc(F)cc3)o2)cc1OC
    4, -11, i, -1, 6, -4, 7, -14
CCN1CCN(c2ccc(S(=O)(=O)N3CCCCC3)cc2NC(=O)CC(C)c2ccccc2)CC1 (stereo not given)
    -54, /, i, /, 3, 6, -10, -12
COc1cccc(C(C)(O)c2nc(-c3cncnc3)cs2)c1 (stereo not given)
    0, /, /, /, 3, -1, /, 6
CCCOC(=O)c1ccc(NC(=O)Cc2cccs2)cc1
    -3, 6, i, -2, -3, 8, 6, -13
Cn1c(=O)c2c(SCC(=O)N3CCCc4ccccc43)nc(CC(C)(C)C)nc2n(C)c1=O
    /, -5, i, -8, -1, -10, 0, -15
CCCC[n+]1ccn(-c2nc3ccccc3nc2[N-]S(=O)(=O)c2ccc(Br)cc2)c1
    2, -6, i, -4, 4, 2, 4, -10
CCN(CC(=O)Nc1c(F)cccc1F)C(=O)Cc1csc(-c2ccccc2)n1
    -16, /, i, /, 1, 2, -21, -9
CCN(Cc1cc2ccccc2[nH]c1=O)C(=O)c1cccc([N+](=O)[O-])c1
    6, -3, i, 4, /, /, -14, /
CCSc1nc2ccccc2n1Cc1ccccc1F
    -1, -6, i, -4, 5, 2, 0, -14
CCOC(=O)C(=O)NCC(c1ccco1)S(=O)(=O)c1cccs1 (stereo not given)
    /, /, i, /, -4, 1, -11, -10
Cc1nc(S(=O)(=O)c2ccc(Cl)cc2)c(NCc2ccccc2)o1
    -12, -2, i, 0, 14, 3, -2, -15
CCCn1c(SCC(=O)c2c[nH]c3ccccc23)nnc1-c1ccncc1
    8, 9, i, 2, -1, 5, 23, /
COC(=O)C1N2C(=O)[C@@H](NC(=O)COc3ccccc3)[C@H]2SC1(C)C (stereo not given in full)
    -5, /, i, /, 0, -2, 1, 9
O=C(O)C1CCCCN1C(=O)c1ccc(S(=O)(=O)N2CCCC2)cc1 (stereo not given)
    28, /, /, /, 3, 1, /, 13
Fc1cccc(Cn2cc(C(=S)N3CCCCC3)c3ccccc32)c1
    -11, -5, i, -6, 4, 4, 5, -18
COc1ccc(NS(=O)(=O)c2ccc(OCC(=O)N3CCOCC3)cc2)cc1
    /, 10, i, -4, 2, -1, -2, -7

For reference, part of the list above:
Values in the order: Env fusion inh, PABP polyA inh, Rce1 inhib, eIF4H inh, MT1-MMP act inh, MT1-MMP act inh RFP, CSC inhib, UUG fidelity
CCCn1c(SCC(=O)c2c[nH]c3ccccc23)nnc1-c1ccncc1
    8, 9, i, 2, -1, 5, 23, /
COC(=O)C1N2C(=O)[C@@H](NC(=O)COc3ccccc3)[C@H]2SC1(C)C (stereo not given in full)
    -5, /, i, /, 0, -2, 1, 9
O=C(O)C1CCCCN1C(=O)c1ccc(S(=O)(=O)N2CCCC2)cc1 (stereo not given)
    28, /, /, /, 3, 1, /, 13
Fc1cccc(Cn2cc(C(=S)N3CCCCC3)c3ccccc32)c1
    -11, -5, i, -6, 4, 4, 5, -18
COc1ccc(NS(=O)(=O)c2ccc(OCC(=O)N3CCOCC3)cc2)cc1
    /, 10, i, -4, 2, -1, -2, -7

Other results follow.
Values in the order: Env fusion inh, PABP polyA inh, Rce1 inhib, eIF4H inh, MT1-MMP act inh, MT1-MMP act inh RFP, CSC inhib, UUG fidelity
Cc1cc(NC(=O)CSc2nc3c(C)cccc3cc2C#N)no1
    25, -10, i, -3, -46, -11, /, -9
Cn1c(NCc2ccccc2)nc2c1c(=O)n(Cc1ccccc1)c(=O)n2C
    40, -6, i, 0, 6, -4, -5, -1
O=C(O)c1ccc(N2C(=O)c3[nH]nc(-c4ccccc4)c3C2c2ccccc2)cc1 (stereo not given)
    -1, -9, i, 0, 5, 10, -2, /
O=C(/C=C/c1cn(-c2ccccc2)nc1-c1cccnc1)NCCN1CCOCC1
    19, -1, i, -13, 4, 4, -5, /
C[C@H](O)[C@@H]1C(=O)N2CCc3c([nH]c4ccccc34)[C@@H]2C[C@@H]1N(C)C(=O)Nc1cccc2ccccc12
    -7, /, /, /, -4, 1, /, 3
CCOc1ccc(-n2c(=O)c3sccc3n(CC(=O)NC3CCCCC3)c2=O)cc1
    9, 5, /, 10, 3, 4, -18, -10
S=C(NCc1ccco1)Nc1ccccn1
    14, 2, i, -6, -3, 2, 2, -27
CC1(C)CC(=O)C2=C(C1)Oc1ncn(Cc3ccco3)c(=N)c1C2c1ccccc1 (stereo not given)
    /, -3, i, -8, -6, -21, -1, 9
COC(=O)c1nn(-c2ccccc2)c2nnc(Cc3ccc(C)cc3)c(=O)n12
    -15, -1, i, -7, -3, 3, -15, /
Cc1ccnc(NC(=O)COc2ccc3oc4c(c3c2)CCCC4)c1
    /, -15, i, -1, 2, 4, -1, -17
Cc1ccc(C)c(N2CCN(C(=O)CCc3nc(-c4ccccc4C(F)(F)F)no3)CC2)c1
    25, /, /, /, 3, -1, /, -2
Oc1oc(C=Nc2ccc(F)cc2F)c2ccccc12
    -22, 5, i, -3, -7, 6, -9, /
CC(C)C(=O)NS(=O)(=O)c1ccc(N)cc1
    /, 0, i, -2, 6, 7, -14, -10
CCCCN(C(=O)COC(=O)CSc1cc(C)c2ccccc2n1)c1c(N)n(CCC)c(=O)[nH]c1=O
    15, 3, i, -12, 1, 5, -5, 0
CCc1ccc(-c2c(C)sc(NC(=O)C3CCC3)c2C#N)cc1
    3, 50, i, -4, -2, 1, 0, -10
COc1cccc2c(O)cc(=O)n(C)c12
    -32, -4, i, -7, -3, 4, -10, -2
CC(=O)Oc1ccc(Cn2c(C)c(C(=O)NCc3ccc4c(c3)OCCO4)sc2=O)cc1
    7, /, /, /, 7, -4, /, -5
O=C(Cc1ccccc1)NC1CCS(=O)(=O)C1 (stereo not given)
    /, -3, i, -2, 2, 7, -3, -7
COc1ncccc1C(=O)N1CCC(n2nccc2NC(=O)CC(C)C)CC1
    -7, 2, i, 9, -1, 3, 8, 3
Cc1ccc(NC(=O)Cc2nnc(N)s2)cc1
    -8, 2, i, 7, 2, 1, -7, 15
Cc1cccc(NC(=O)CCCN2C(=O)c3ccccc3C2=O)n1
    -81, -6, i, 1, -9, 2, -14, 0
COc1ccc(NC(=O)CCN2C(=O)C3C4C=CC(C4)C3C2=O)cc1 (stereo not given)
    10, 2, i, 9, 5, 6, -5, -13
Cc1ccc(-n2c(SCC(=O)N(C)C3CCS(=O)(=O)C3)nc3ccccc3c2=O)c(C)c1 (stereo not given)
    18, /, /, /, 1, 0, -1, /
Brc1ccc2c(c1)OCCOCCOCCOCCOCCOCCO2
    -2, -9, i, 1, 5, 1, -7, 7
Cn1c(=O)c2c(nc(NCc3ccc4c(c3)OCO4)n2Cc2ccc(F)cc2)n(C)c1=O
    -10, -11, i, -1, -19, -16, 2, -16
COc1ccccc1-n1c(SCC(=O)Nc2cccc(S(N)(=O)=O)c2)nc2ccccc2c1=O
    20, -13, /, 6, -2, -5, -7, /
CCC(CO)N=C1CC(C)(C)CC(=O)/C1=C(/O)CCCN1C(=O)c2ccccc2C1=O (stereo not given)
    19, 4, i, -2, -1, 0, -3, 0
COc1cccc(C(=O)N/N=C/C(Br)=C/c2ccccc2)c1
    28, 18, i, -9, -4, -11, 57, -31
CCOC(=O)[C@@H]1[C@H]2COc3ccccc3[C@@H]2N2C(=O)N(c3ccc(Br)cc3)C(=O)[C@]12C
    -17, /, /, /, 6, -3, -16, 6
COC(=O)C[C@H]1CC[C@@H](NC(=O)Nc2ccc(C(F)(F)F)cc2)[C@@H](CO)O1
    -25[16.7 µM], /, /, /, 3, 1, /, -6
Oc1[nH]c2ccccc2c1C=Nc1ccc2c(c1)OCO2
    -367, 18, i, -9, 2, -5, 26, -15
O=C(O)CCC(=O)NNc1nc2ccccc2nc1-c1ccccc1
    11, 4, i, 5, 4, 0, -7, /
NC(=O)c1ccsc1NC(=O)CSc1ncnc2sccc12
    -1, /, /, /, -1, -2, -3, -17
COc1ccccc1S(=O)(=O)Cc1ccc(C(=O)NCCN(C)C)o1
    -5, /, i, /, -4, 0, -2, -22
CCOCCCNC(=O)N1CCOCC1
    -76, -2, i, -12, 0, 4, -12, 40
C=C1C[C@]23C[C@@]1(O)CC[C@H]2[C@@]12C=C[C@H](O)[C@@](C)(C(=O)O1)[C@H]2[C@@H]3C(=O)O
    -3, /, /, /, 2&-2, 1&3, -2&-2, -22&-17
COc1ccc(C(CC(=O)O)N2Cc3ccccc3C2=O)cc1OC (stereo not given)
    -4, 1, i, 6, 14, 1, -14, -10
O=C(CSc1nnc(-c2cccnc2)o1)Nc1cccc(F)c1
    /, /, i, /, -1, 0, /, -2
Cc1ccc(NC(=O)COC(=O)c2c(C)nn(-c3ccccc3)c2C)cc1
    6, /, /, /, 1, -1, -1, -15
